Compound activity as filed in PubChem.
CSC inhib: cancer stem cell viability inhibitors, primary screen, luminescence. cancer stem cell-like cells viability. inhibition, % at 7.5 µM. AID 2717, 2010. hit rate 1.1% among 300,000;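 active means mean at 75% or more and at least half the replicates too; tested in HMLE shEcad cells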;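 further: 0% = median of negative and 100% = median of positive control wells; the first replicate is given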
UUG fidelity: modulators of yeast start codon fidelity, primary screen, whole organism, S. cerevisiae, single point, plate reader; AID 602363, 2012; activity score, % at 18.7 µM; S. cerevisiae UUG-firefly luciferase reporter, luminescence/redox ratio; hit rate 0.13% among 350,000;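 active means replicate mean at a twofold rise or more, about +100% in these data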;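 further: firefly luciferase made from a UUG start codon reports start codon fidelity; reporter light over untreated wells divided by growth signal over untreated wells; some hits fall short of that in this replicate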
Env fusion inh: inhibitors of HIV-1 Env-driven cell-cell fusion, primary screen, HeLa-JRFL effector, CEM21 target cells, luciferase; hit rate 1.1% among 360,000; AID 651610, 2012; inhibition, % at 12.3 µM;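 active means mean replicate inhibition score of at least 50 and every replicate individually at or above 50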;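 further: 0% = plate neutral controls and 100% = maraviroc near 300 nM; one replicate is shown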
eIF4H FP inh: human eIF4H binding inhibitors, primary screen, translation initiation inhibitor project, biochemical, uHTS, fluorescence polarization. Eukaryotic translation initiation factor 4H (Homo sapiens), Q15056. eIF4H fluorescence polarization binding assay. inhibition, % at 35 µM. hit rate 0.94% among 290,000;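 active means 50% or more with normal probe brightness, or confirmed in later tests; about a fifth of its hits are not listed in these tables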;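 further: calls also rest on retests at 20 µM and on dose response follow-up; 0% = protein and probe with vehicle and 100% = probe without protein; strong numbers were not always called active; many hits fall short of the cut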
MT1-MMP act inh: blockers of MT1-MMP proenzyme processing, primary screen, HT1080 RFP-PRO-GFP cells, GFP/RFP fluorescence; GFP/RFP ratio change, % at 20 µM; AID 651647, 2012; Matrix metalloproteinase-14 (Homo sapiens), P50281; hit rate 0.061% among 360,000; GFP/RFP ratio fluorescence, overnight; percent of plate control window, DMSO zero;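 active means GFP/RFP ratio change of at least 30% with cell ATP level not reduced by more than half and red fluorescence within 50% of control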; further: strong numbers were not always called active
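Assay system – RFP-PRO-GFP reporter HT1080 cells · Compound dosing – single dose of 20 µM compound, 1% DMSO final · Incubation – overnight compound exposure at 37 °C · Measure – GFP/RFP fluorescence ratio · Benchmarks – DMSO wells and RFP-L50D-GFP cells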
Rce1 inhib: yeast Rce1p protease inhibitors, primary screen, biochemical, fluorescence, cell-free homogeneous. yeast membranes, quenched prenylated peptide cleavage fluorescence. hit rate 0.27% among 290,000. calls only. CAAX prenyl protease 2 (Saccharomyces cerevisiae (strain ATCC 204508 / S288c)), Q03530;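 active means fall in fluorescence gain of 50% or more versus controls, with final raw signal at or below 3038400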;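 further: plate controls were neutral control wells for no effect and wells lacking membranes for full effect; tested at 10 µM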
Target sequence (Q03530 whole entry, looked up): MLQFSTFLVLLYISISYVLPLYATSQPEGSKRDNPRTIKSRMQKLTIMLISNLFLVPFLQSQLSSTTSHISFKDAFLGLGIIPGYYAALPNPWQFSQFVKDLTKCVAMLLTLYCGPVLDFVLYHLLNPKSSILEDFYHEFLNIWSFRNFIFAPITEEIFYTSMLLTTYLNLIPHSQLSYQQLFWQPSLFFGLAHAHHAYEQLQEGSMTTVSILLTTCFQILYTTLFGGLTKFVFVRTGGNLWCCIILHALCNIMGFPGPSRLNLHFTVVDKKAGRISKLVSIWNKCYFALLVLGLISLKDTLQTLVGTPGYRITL
PABP polyA inh: PABP poly(A) RNA binding inhibitors, primary screen, biochemical, fluorescence polarization, uHTS | hit rate 1% among 290,000 | inhibition, % at 35 µM | Polyadenylate-binding protein 1 (Homo sapiens), P11940 | AID 2014, 2009;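 active means 50% or more with normal probe brightness, or confirmed in later tests; about a fifth of its hits are not listed in these tables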;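 further: calls also rest on retests at 20 µM and on dose response follow-up; controls were probe without protein and protein plus probe with vehicle; some compounds called inactive have numbers as strong as hits; many hits fall short of the cut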
Target sequence (P11940 whole entry, looked up): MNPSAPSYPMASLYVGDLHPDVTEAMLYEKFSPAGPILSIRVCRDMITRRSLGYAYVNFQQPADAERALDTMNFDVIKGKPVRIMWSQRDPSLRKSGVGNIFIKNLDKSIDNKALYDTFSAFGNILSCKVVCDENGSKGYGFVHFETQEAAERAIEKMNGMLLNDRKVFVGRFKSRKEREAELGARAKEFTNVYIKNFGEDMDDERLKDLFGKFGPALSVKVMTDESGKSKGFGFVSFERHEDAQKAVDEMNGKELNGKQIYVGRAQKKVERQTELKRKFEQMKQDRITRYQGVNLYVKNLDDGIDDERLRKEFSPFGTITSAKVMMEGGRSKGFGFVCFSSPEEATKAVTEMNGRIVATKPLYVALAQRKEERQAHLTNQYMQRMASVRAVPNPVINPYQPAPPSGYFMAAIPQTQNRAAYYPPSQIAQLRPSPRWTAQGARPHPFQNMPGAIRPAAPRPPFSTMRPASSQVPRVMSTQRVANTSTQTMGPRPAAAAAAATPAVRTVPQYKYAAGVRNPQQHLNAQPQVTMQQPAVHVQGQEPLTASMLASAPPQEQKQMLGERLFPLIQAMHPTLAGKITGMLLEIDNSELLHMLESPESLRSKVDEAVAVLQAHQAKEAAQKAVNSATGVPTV
MT1-MMP act inh RFP: also measured in MT1-MMP act inh; calls as there; RFP signal change, %; measured here: RFP expression control read;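 0 = vehicle wells; hits needed this value within 50% of zero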
Active calls of the source: *; i = inactive; . = no result given; + = active, no number; & = joins results of further samples. These rows are one share of the data, so the mix of outcomes need not match the whole.

Compound	Rce1 inhib	MT1-MMP act inh	CSC inhib	Env fusion inh	MT1-MMP act inh RFP	PABP polyA inh	eIF4H FP inh	UUG fidelity
NC(=O)c1c(NC(=O)C2CCCO2)sc2c1CCCC2 (centres undefined)	i	-1.0	-11.2	12.1	-0.3	-26.0	10.7	.
COCCNc1nc(NCCOc2ccccc2)c2sc(-c3ccccc3)cc2n1	.	-1.1	.	-89.2	-11.6	.	.	-36.2
O=C(c1ccc(CNS(=O)(=O)c2ccc(Br)cc2)cc1)N1CCCCCC1	i	-1.4	-18.0	5.1	-9.7	6.2	2.6	-5.7
COc1ccc(OC)c(NC(=O)CN2C(=O)C3(OCCCO3)c3ccccc32)c1	i	4.4	.	.	0.8	-1.1	7.1	-2.6
O=C(NCC1CCCO1)c1cc(-c2ccccc2)nc2ccccc12 (centres undefined)	i	-5.4	-8.8	12.8	-10.0	10.1	-4.7	.
C=C(C)CN1C(=O)C(C)SC1=NN=C1SCC(=O)N1C (centres undefined)	.	-5.5	.	-1.1	2.1	.	.	-18.3
CCN(C1CCCCC1)S(=O)(=O)c1cc2c3c(c1)CCN3C(=O)CC2	i	1.9	2.8	-9.1	0.7	.	.	15.4
COC(=O)c1c(NC(=O)COc2ccc(Cl)cc2Cl)sc2c1CC(C)(C)NC2(C)C	i	-0.2	103.2*	13.5	1.1	-39.6	-23.8	-8.0
O=c1[nH]c(SCC2CCCCO2)nc2ccccc12 (centres undefined)	i	3.4	-10.9	-67.2	2.6	10.5	0.6	36.9
C=CCn1c(Cn2nnc3ccccc32)nnc1SCC(=O)N/N=C/c1cc(Br)cc(OC)c1O	i	1.9	-5.4	.	1.8	4.6	-9.9	11.2
C=CCn1c(SCC(=O)NCC)nc2sc3c(c2c1=O)CCC3	i	6.7	-11.2	4.2	2.6	-0.8	3.9	.
O=C(Nc1ccccc1)OCc1cnc(Cl)s1	i	3.5	6.0	-0.6	5.5	-4.7	-0.4	6.6
CC(C)(C)OC(=O)CNC(=O)c1[nH]cnc1C(=O)NC1CCNCC1	.	2.6	-16.5	-18.0	4.5	.	.	-20.2
Cc1ccc(S(=O)(=O)Nc2ccc3c(c2)n(C)c(=O)n3C)cc1	i	14.2	-6.6	-63.1	1.2	9.6	-0.9	6.4
CC1CC(C)CN(c2oc(Cc3ccccc3)nc2C#N)C1 (centres undefined)	i	1.8	69.2	5.2	-2.8	1.4	7.7	.
CCOCCCNC(=O)c1cc(Sc2ccc(C)cc2)nc2ccccc12	i	1.0	-3.5	1.3	-7.3	3.9	-3.9	.
S=C(NCc1ccccc1)Nc1ccncc1	i	-5.2	3.5	10.6	-24.6	10.3	3.0	-22.6
Cc1cc2c(ncn2Cc2ccccc2)c(NS(C)(=O)=O)c1C	i	13.8	-22.4	14.1	0.1	10.0	3.7	-21.8
CCOc1ncccc1C(=O)NNC(=O)c1cccc(S(=O)(=O)Nc2ccccc2OC)c1	i	2.0	-8.0	3.9	-4.5	.	.	3.1
COc1ccsc1C(=O)N1CCN(Cc2ccc3c(c2)OCO3)CC1	i	0.9	-0.7	18.4	-2.4	2.6	6.7	-18.4
CCN(CC)CCNC(=O)c1cc2c(=O)n(C)c3ccccc3c2s1	+	4.0	27.7	-15.6	2.1	19.6	-14.7	-5.5
O=C(Nc1ccc(Cl)cc1)Nc1ccc(-c2cnco2)cc1	i	-1.5	6.7	-4.0	-3.2	2.5	-1.7	-11.0
COc1ccc(C(=O)Nn2c(SCC(=O)NCc3ccccc3)nc3ccccc3c2=O)cc1	i	3.6	-8.1	2.7	5.7	-1.8	-2.5	-59.9
CCOc1ccc(OCC)c(S(=O)(=O)NCCCN2CCOCC2)c1	.	2.7	4.0	.	2.8	-10.2	5.6	.
Cn1ncc2c(Nc3ccc(Br)cc3)nc(Nc3ccc(Br)cc3)nc21	i	-6.5	103.3*	12.6	-9.9	3.0	0.6	-11.6
CCOc1ccc(Nc2ccnc3cc(Cl)ccc23)cc1	i	-5.6	44.1	19.6	-1.2	1.4	9.9	-9.8
O=C(Nc1ccc(S(=O)(=O)N2CCCC2)cc1)c1cncc(Br)c1	.	-0.5	.	4.1	-5.8	.	.	-9.7
CCN(Cc1ccncc1)Cc1nc(CC2CC2)no1	i	-3.1	-5.2	14.6	-2.3	-4.1	-8.3	.
Cc1cnc(SCc2cnc(C)nc2N)nc1	i	-1.6	-3.5	5.3	3.4	-0.2	5.9	-3.3
Fc1ccc(COc2cccc(-c3n[nH]c(=S)o3)c2)cc1	i	0.4	-1.5	-28.6	-4.8	11.6	2.8	.

New compounds follow
Compound	Rce1 inhib	MT1-MMP act inh	CSC inhib	Env fusion inh	MT1-MMP act inh RFP	PABP polyA inh	eIF4H FP inh	UUG fidelity
CCOC(=O)CN1N=C(/C=C/c2ccc(C(C)C)cc2)CCC1=O	i	0.5	1.2	23.9	1.7	10.7	5.0	.
CC(C)C(=O)Nc1cc(-c2nc3ncccc3o2)ccc1Cl	i	4.7	-11.1	-6.4	3.7	-2.8	-5.6	-12.0
CSc1ccc(CCNC(=O)CSc2ccsc2[N+](=O)[O-])cc1	i	-9.5	16.4	-73.9	-6.0	3.5	-4.1	.
COc1ccc(C/C(C)=N/NC(=S)Nc2ccc(C)c(C)c2)cc1	i	1.2	-3.1	-6.1	3.9	-7.5	0.8	-32.5
O=C1NCC(=O)N2C(c3ccccc3)c3[nH]c4ccccc4c3C[C@@H]12 (some centres undefined)	i	1.2	-0.2	12.8	-2.7	-3.6	5.2	.
Cc1ccc(S(=O)(=O)N(CC2CO2)c2cccc([N+](=O)[O-])c2)cc1 (centres undefined)	i	-9.5	.	-2.5	-11.9	-0.5	-5.2	-17.0
O=C(/C=C1\NC2(CCCC2)Cc2ccccc21)C(=O)N/N=C/c1ccccc1O	i	-15.3	.	21.9	-7.4	0.3	31.1	-18.7
CC(=O)N/C(=C\c1ccc(F)cc1)C(=O)OC(C)C	i	0.1	-7.1	3.8	4.2	10.1	13.0	.
CCCc1ccc(OCC(O)CN2CCN(C(=O)OCC)CC2)cc1 (centres undefined)	i	-1.3	6.1	9.7	-1.2	-6.6	-14.4	-4.5
Nc1ccc(C(=O)N2CCN(S(=O)(=O)c3ccc4c(c3)OCCO4)CC2)cc1[N+](=O)[O-]	i	5.0	.	22.3	0.1	-7.6	1.0	-3.5
C=CCOC(=O)/C(=C/c1cccc2ccccc12)NC(=O)c1ccccc1	i	4.8	-0.2	.	-2.8	-11.8	-2.7	-9.7
CC(Sc1ncccn1)C(=O)NNC(=O)c1cccc(Cl)c1 (centres undefined)	.	-5.5	-5.1	.	1.7	.	.	-7.4
CN(C)C(CNC(=O)c1ccccc1C(F)(F)F)c1ccco1 (centres undefined)	i	0.2	-11.7	6.3	3.9	-7.0	5.1	-3.4
Cc1cc(C)cc(NC(=O)CN2CCC(NC(=O)c3ccccc3F)CC2)c1	.	2.1	-12.1	3.7	-0.8	-7.9	-9.4	-7.3
O=C(CCN1C(=O)COc2ccccc21)NCc1cccnc1	i	-1.7	-7.9	.	1.3	-6.4	1.9	9.7
CCOC(=O)CCCNC(=O)CSc1nnc(-c2ccccc2)c(-c2ccccc2)n1	i	-3.8	-14.2	6.3	-0.9	10.9	-3.5	3.2
N#C/C(=C(/O)COc1ccccc1)c1nnc2n1CCCCC2	i	1.2	-8.5	-7.9	4.4	-2.7	-3.7	.
CCOc1ccc(/C(O)=C2/C(=O)C(=O)N(CCCN3CCOCC3)C2c2ccc(F)cc2)cc1C (centres undefined)	i	3.3	-2.4	4.6	3.2	5.4	6.4	-17.5
COc1ccc(NC(=O)C2CCN(S(=O)(=O)c3ccccc3)CC2)cc1	i	1.0	4.0	17.3	-0.2	15.0	0.1	17.2
CC(C)c1ccc(NC(=S)Nc2ccc3cn[nH]c3c2)cc1	i	-3.3	52.2	-0.1	-5.1	-7.2	-4.0	-29.4
CC(=O)OC1CCC2(C)C(COc3ccc4ccc(=O)oc4c3)C(C)(O)CCC2C1(C)C (centres undefined)	+	-33.8	-8.7	.	-28.6	1.4	2.4	-12.5
CCOC(=O)c1cccc(NC(=O)C(NS(=O)(=O)c2ccc3c(c2)CCN3C(C)=O)C(C)C)c1 (centres undefined)	.	6.3	.	.	3.5	-0.7	-2.8	-13.8
COc1ccc(CN(C)C(=O)c2ccncc2)c(OC)c1	i	-1.2	-11.1	-334.2	0.5	-10.5	-15.6	-15.2
O=C(NN1C(=O)C2C3C=CC(C4CC34)C2C1=O)c1ccc(Br)cc1 (centres undefined)	i	1.1	-20.7	-2.9	-1.5	-0.2	2.4	.
CC(=O)c1ccc(NC(=O)Nc2ccncc2)cc1	i	2.6	2.0	6.6	-0.4	-8.4	-5.0	0.8
COC(=O)c1cccc(NC(=O)/C(=C\c2ccco2)NC(=O)c2ccco2)c1	.	-3.0	.	-59.1	6.2	.	.	-13.0
Cc1ccc(Cn2c(CCNc3nc(-c4ccc(C)cc4)cs3)nc3cc(C(=O)NCCCO)ccc32)cc1	i	3.6	24.8	-29.7	-8.7	.	.	-6.8
CCc1nc2c(OCc3ccc(C(F)(F)F)cc3)cccn2c1N(C)C(=O)c1ccncc1	.	-4.7	.	6.3	0.5	.	.	-27.9
CCCCCCC[C@@H](C/C=C/CCC(=O)N(C)C/C(=C/Cl)C/C(=C\C(=O)N1C[C@H](O)CC1=O)OC)OC	.	-3.2	.	5.3	-23.2	.	.	9.8
CCN(CC(=O)Nc1c(F)cccc1F)C(=O)CNC(=O)c1ccc(C)s1	i	-0.4	-14.2	.	2.9	2.4	2.3	-8.3

Next part
Compound	Rce1 inhib	MT1-MMP act inh	CSC inhib	Env fusion inh	MT1-MMP act inh RFP	PABP polyA inh	eIF4H FP inh	UUG fidelity
O=C1CC(c2ccco2)c2ccc3ccccc3c2N1 (centres undefined)	.	-5.3	9.6	.	-2.7	17.3	-4.4	-8.6
O=C(Nc1ccc(Cl)cc1C(=O)NCCN1CCOCC1)c1ccco1	i	3.1	-6.7	20.5	3.2	-10.9	-2.9	-13.5
CCn1nccc1C(=O)Nc1ccc(Cl)cc1Cl	i	-3.6	14.2	.	1.7	0.6	4.1	-2.4
C[C@@H]1CN([C@@H](C)CO)C(=O)c2cccc(NS(C)(=O)=O)c2O[C@H]1CN(C)C(=O)Nc1ccc(F)cc1	.	2.1	-18.4	-19.0	4.7	.	.	-5.7&-4.0
Brc1ccccc1/C=N/Nc1ccccn1	i	-3.8	-4.8	-35.4	-1.1	2.1	-1.9	1.6
COc1cc2[nH]c(=O)c(C(=O)NCc3ccc(F)cc3)c(O)c2cc1OC	i	2.5	52.5	-7.8	-1.3	-11.0	0.2	-18.9
Cn1c(NCc2ccc3occc3c2)nc2cc(-c3cccc(C(F)(F)F)c3)sc2c1=O	.	-4.9	.	20.2	-27.0	.	.	-7.7
O=C(N/N=C/c1ccco1)C1CC1	i	-2.9	-8.0	-0.8	2.0	15.8	6.9	.

Retrieved one by one from the entries so far (two):
Compound	Rce1 inhib	MT1-MMP act inh	CSC inhib	Env fusion inh	MT1-MMP act inh RFP	PABP polyA inh	eIF4H FP inh	UUG fidelity
O=C(Nc1ccc(Cl)cc1C(=O)NCCN1CCOCC1)c1ccco1	i	3.1	-6.7	20.5	3.2	-10.9	-2.9	-13.5
Cn1c(NCc2ccc3occc3c2)nc2cc(-c3cccc(C(F)(F)F)c3)sc2c1=O	.	-4.9	.	20.2	-27.0	.	.	-7.7
